Cl transport mod – modulators of human KCC2 chloride dependent transport. 2.2% of 190,000 active. KCC2 cells, thallium flux FluoZin-2 fluorescence. Q9H2X9. B-score of Tl+ flux slope (higher = more flux/activation; lower = inhibition) at 10 µM;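 active = thallium flux slope and its plate-corrected score both differing from the plate sample mean at a set confidence after two filtering rounds, in either direction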;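 also: slope of fluorescence scaled to starting intensity during 10 to 20 s after thallium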
PERK inh – human PERK inhibition, primary cell-based screen; Q9NZJ5; CHO PERK-DD fusion, SEAP luminescence translation reporter; inhibition, % at 5.6 µM; 0.17% of 220,000 active; AID 1416;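 active = inhibition above the mean inhibition of all tested compounds plus 3 SD, set separately per screening campaign, cut at about 2.9% in these data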;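 also: PERK kinase domain activated by AP20187 dimerizer at 100 nM; 0% = DMSO with dimerizer and 100% = rapamycin at 8.4 µM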
Target sequence (Q9NZJ5 whole entry, looked up, the tested form may be a part): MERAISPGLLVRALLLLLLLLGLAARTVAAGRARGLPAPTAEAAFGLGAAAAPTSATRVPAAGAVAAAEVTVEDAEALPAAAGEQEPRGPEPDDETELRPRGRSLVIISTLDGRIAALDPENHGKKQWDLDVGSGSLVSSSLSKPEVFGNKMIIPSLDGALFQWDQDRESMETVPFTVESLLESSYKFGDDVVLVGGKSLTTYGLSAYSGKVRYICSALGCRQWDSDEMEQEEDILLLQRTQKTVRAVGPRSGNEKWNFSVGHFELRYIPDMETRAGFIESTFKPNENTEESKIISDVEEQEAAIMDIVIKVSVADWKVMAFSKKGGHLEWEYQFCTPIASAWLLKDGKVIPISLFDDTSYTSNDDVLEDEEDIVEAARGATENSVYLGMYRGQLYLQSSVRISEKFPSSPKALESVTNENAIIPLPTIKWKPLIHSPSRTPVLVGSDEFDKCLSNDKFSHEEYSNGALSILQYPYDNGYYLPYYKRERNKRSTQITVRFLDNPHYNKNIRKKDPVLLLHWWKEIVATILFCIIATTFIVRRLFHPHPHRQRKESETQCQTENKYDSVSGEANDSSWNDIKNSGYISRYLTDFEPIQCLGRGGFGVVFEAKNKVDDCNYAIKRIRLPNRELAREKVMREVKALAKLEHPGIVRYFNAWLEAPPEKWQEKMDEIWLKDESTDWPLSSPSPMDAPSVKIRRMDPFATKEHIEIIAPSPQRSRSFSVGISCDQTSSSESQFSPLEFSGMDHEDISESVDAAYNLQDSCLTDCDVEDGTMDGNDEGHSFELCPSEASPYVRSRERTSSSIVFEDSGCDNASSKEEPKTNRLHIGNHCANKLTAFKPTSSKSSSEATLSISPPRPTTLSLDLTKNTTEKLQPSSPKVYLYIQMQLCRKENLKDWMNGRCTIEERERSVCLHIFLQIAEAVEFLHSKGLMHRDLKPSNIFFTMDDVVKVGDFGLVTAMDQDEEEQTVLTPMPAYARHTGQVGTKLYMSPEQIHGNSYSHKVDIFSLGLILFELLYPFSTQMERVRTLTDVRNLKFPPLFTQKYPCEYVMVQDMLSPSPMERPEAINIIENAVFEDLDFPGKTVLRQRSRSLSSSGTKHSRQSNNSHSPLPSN
KLK5 inh – kallikrein 5 (human) inhibition | Q9Y337 | 0.59% of 210,000 active | recombinant hK5, fluorogenic AMC substrate cleavage | inhibition, % at 5 µM;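 active = inhibition of 40% or more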;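 also: 0% = enzyme controls without compound and 100% = no-enzyme blanks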
Furin inhibitor – blocks human furin protease activity | P09958 | purified furin, fluorogenic substrate cleavage | inhibition, % at 30 µM | 0.061% of 220,000 active | AID 463115; in the data active = inhibition above about 25%; also: inactives centre near -15
Wee1 degr inh – blocks degradation of human Wee1 kinase. reporter increase, % at 5 µM. P30291. AID 1321. 1.2% of 220,000 active. HeLa Luc-Wee1K328M stability, luciferase luminescence; 100% = proteasome inhibitor MG132 effect;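 active = activation above the mean of all tested compounds plus 3 SD, set per screening run, cut at about 8.8% in these data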;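 also: cells exposed to compound for 20 h before luminescence read; 0% = DMSO alone and 100% = MG132 at 30 µM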
p97 ATPase inh – inhibitors of human p97 ATPase; P55072; 0.42% of 220,000 active; inhibition, % at 8 µM; recombinant p97 ATPase, Kinase-Glo ATP luminescence, 3 h; in the data active = inhibition above about 15%;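 also: 0% = DMSO vehicle and 100% = wells lacking enzyme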
Thrombin inh – thrombin (human) inhibition; P00734; alpha-thrombin, Boc-VPR-AMC fluorogenic substrate cleavage; inhibition, % at 5 µM; 0.26% of 220,000 active; AID 1046;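 active = inhibition at or above 40%; inactive = inhibition below 40%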;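 also: 0% = enzyme with no compound and 100% = wells without enzyme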
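Material: Human alpha-thrombin protein | Buffer or medium: pH 7.5 Tris-saline with Tween 20 | Reagent: Boc-VPR-AMC substrate, 15 µM final | Schedule: Reaction at ambient temperature | Detection: AMC fluorescence at 355 nm excitation and 460 nm emission | Evaluation: Percent inhibition scaled between no-compound controls and no-enzyme blanks | Controls: no-compound enzyme wells and no-enzyme blanks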
An asterisk follows results filed as active; nt = no result given; [ ] = remark or other dose. A portion of the library; the hit share may differ from the screen's.

A first look, 2 compounds:
SMILES	Cl transport mod	PERK inh	KLK5 inh	Furin inhibitor	Wee1 degr inh	p97 ATPase inh	Thrombin inh
CCOCCCNC(=S)NCCNc1nc2ccc(C)cc2cc1C#N	0.023	-0.3	-7	-19	2	2	4
CC(C)Nc1ncnc2c1cnn2-c1ccccc1	0.0031	-0.1	1	-13	1	0	0

Results, previewed entries included:
SMILES	Cl transport mod	PERK inh	KLK5 inh	Furin inhibitor	Wee1 degr inh	p97 ATPase inh	Thrombin inh
CCOCCCNC(=S)NCCNc1nc2ccc(C)cc2cc1C#N	0.023	-0.3	-7	-19	2	2	4
CC(C)Nc1ncnc2c1cnn2-c1ccccc1	0.0031	-0.1	1	-13	1	0	0
Cc1ccc(-c2nc(N)n(C(=O)c3cccnc3)n2)cc1	0.28	0.3	-3	16[20 µM]	-1	5	36
CCn1c(Cc2ccccc2)nnc1SCC(=O)Nc1ccc(S(N)(=O)=O)cc1	-0.16	0.8	-8	-14[20 µM]	5	0	-9
O=C(O)c1ccc(C(=O)C(=O)c2ccccc2)cc1	1.5	0.6	7	-6	6	-5	9
CCCc1ccc(OCc2ccc(C(=O)O)o2)c(OC)c1	0.063	0.1	-5	-10[20 µM]	5	2	1
Cc1cc(C)c(C(=O)N2CCCC(CNC(=O)C3(c4ccc(Cl)cc4)CC3)C2)c(=O)[nH]1 (stereo not drawn)	0.31	0.2	-5	-19	-1	2	-5
O=C(/C=C/c1ccccc1)c1ccc2c3c(cccc13)CC2	1.2	1.7	0	-4	4	1	-4
Cc1ccc(/C=N/n2c(COc3ccccc3)n[nH]c2=S)s1	16*	1.2	-13	-17	2	2	-4
Cc1cccc(N2C(=O)SC(N(C)c3ccccc3)C2=O)c1 (stereo not drawn)	-0.32	1.4	-21	-14	0	5	0
COc1ccccc1OCCC(=O)OCC(=O)c1[nH]c(C)c(C(C)=O)c1C	-0.017	0.5	-3	-9	-4	1	-8
CC1(C)C2CCC1(C)C(NC(=O)/C=C/c1ccccc1)C2 (stereo not drawn)	-0.011	2.1	-4	-19	6	0	-2
CC(C)NC(=O)C1CCN(C2CCN(CC3CC=CCC3)CC2)CC1 (stereo not drawn)	-0.14	0.4	5	-23	4	-3	-4
COc1ccc(NC(=O)c2sc(N)nc2-c2ccccc2)cc1	-0.49	0.8	14	-21	1	4	-3
COc1ccc(CC(=O)NC(C)c2nnc(SCC(=O)c3ccc(Br)cc3)n2C)cc1 (stereo not drawn)	0.49	-0.3	-2	-13[20 µM]	2	0	7
O=C(CSc1nc2ccccc2o1)Nc1nccs1	-0.88	-0.2	-4	-18	-1	2	-4
O=C(CSc1ncnc2c1cnn2-c1ccc(F)cc1)NCc1ccc2c(c1)OCO2	3.4	0.3	-7	-17	-3	4	-2
CCOC(=O)C1CCN(Cc2cn[nH]c2-c2ccc(C)cc2)CC1	nt	-0.6	-8	-16	4	-5	-7
COc1ccc(C(=O)Oc2cccnc2)cc1	-1	0.4	-5	-22[20 µM]	-3	2	2
Cc1sc2ncn(CC(=O)NCCCC(=O)N3CCN(c4ccccc4)CC3)c(=O)c2c1C	0.65	1.4	-2	-10[20 µM]	-1	-3	-14
CCN(CC)C(=O)c1[nH]cnc1C(=O)N[C@@H](C)C(=O)OC(C)(C)C	2.1	0.4	4	-17	1	3	-1
COc1ccc(-c2nc(N)n(C(=O)c3ccccc3)n2)cc1	-1	2.2	28	-23	-3	1	39
Cc1cc(Nc2ccccc2)n(CCC#N)n1	nt	2.9	-5	20[20 µM]	0	0	-2
Cc1cccc(N2CCN(C(=O)c3ccc(NC(=O)C4CCCO4)cc3)CC2C)c1 (stereo not drawn)	0.5	-0.7	-25	-13	-1	4	-1
Nc1nc(N)nc(-c2ccccc2O)n1	0.3	0.2	-3	-18[20 µM]	-2	-2	-7
CC(=O)CSc1nnc(C(F)(F)F)n1C	-0.21	2.0	4	-28	3	4	-2
O=C1C=C(NCc2ccccc2)CCC1	1.4	0.9	-9	-10	1	3	-6
C#CCn1c(=NC(=O)CSCC(=O)N2CCOCC2)sc2ccccc21	-0.45	0.2	-13	-24	0	4	-5
C[C@H](NC(=O)c1[nH]cnc1C(=O)Nc1ccc(CNC(=O)OC(C)(C)C)cc1)C(=O)OC(C)(C)C	-2	nt	-2	-51	nt	nt	-2
CCOC(=O)c1cc(C#N)c(N2CCCC2)nc1-c1ccccc1	-1.3	-1.1	1	-16	0	-4	-2
COC(=O)c1cc(=O)nc2sc3cc(OC)ccc3n12	-1.1	0.4	-11	7[20 µM]	2	-4	-1
COc1ccc(S(=O)(=O)Nc2c(C)nc3nc[nH]n3c2=O)cc1	0.14	2.0	10	-35	-2	5	-17
COc1cc(OC)cc(C(=O)N2CCC(n3c(C)nc4cc(F)ccc43)CC2)c1	-0.05	-1.6	-10	-36	0	2	3
COc1cccc(C2C(C(=O)Nc3cccnc3)=C(C)Nc3nnnn32)c1OC (stereo not drawn)	nt	0.6	-2	-20	2	2	-7
Cc1cccc2cc(C#N)c(N3CCN(C)CC3)nc12	nt	0.4	0	-20	-4	-2	-4
Nc1c(-c2ccccc2)cnn1C1CCS(=O)(=O)C1 (stereo not drawn)	1.2	1.4	2	-17[20 µM]	-1	0	1
CC(C)c1ccc(OCC(=O)NC(=S)Nc2ccc3c4c(cccc24)CC3)cc1	0.43	0.4	-5	-7[20 µM]	-1	2	-3
COc1cccc(/C=N\n2c(C)nnc2C)c1OC	nt	0.4	-4	-28	3	3	-7
O=C(CNC(=O)c1ccccn1)N/N=C/c1ccccc1	0.62	1.8	-15	-18[20 µM]	2	5	1
COCCNC(=S)NCCCNc1nc2cc3c(cc2cc1C#N)OCO3	nt	0.2	-80	-73[20 µM]	3	2	2

13 entries already listed, sorted by molar mass, ascending.
SMILES	Cl transport mod	PERK inh	KLK5 inh	Furin inhibitor	Wee1 degr inh	p97 ATPase inh	Thrombin inh
COc1ccc(C(=O)Oc2cccnc2)cc1	-1	0.4	-5	-22[20 µM]	-3	2	2
CC(C)Nc1ncnc2c1cnn2-c1ccccc1	0.0031	-0.1	1	-13	1	0	0
O=C(O)c1ccc(C(=O)C(=O)c2ccccc2)cc1	1.5	0.6	7	-6	6	-5	9
CC1(C)C2CCC1(C)C(NC(=O)/C=C/c1ccccc1)C2 (stereo not drawn)	-0.011	2.1	-4	-19	6	0	-2
CCCc1ccc(OCc2ccc(C(=O)O)o2)c(OC)c1	0.063	0.1	-5	-10[20 µM]	5	2	1
COc1ccc(-c2nc(N)n(C(=O)c3ccccc3)n2)cc1	-1	2.2	28	-23	-3	1	39
Cc1cccc(N2C(=O)SC(N(C)c3ccccc3)C2=O)c1 (stereo not drawn)	-0.32	1.4	-21	-14	0	5	0
COc1ccc(NC(=O)c2sc(N)nc2-c2ccccc2)cc1	-0.49	0.8	14	-21	1	4	-3
CCOCCCNC(=S)NCCNc1nc2ccc(C)cc2cc1C#N	0.023	-0.3	-7	-19	2	2	4
C#CCn1c(=NC(=O)CSCC(=O)N2CCOCC2)sc2ccccc21	-0.45	0.2	-13	-24	0	4	-5
COc1cc(OC)cc(C(=O)N2CCC(n3c(C)nc4cc(F)ccc43)CC2)c1	-0.05	-1.6	-10	-36	0	2	3
CC(C)c1ccc(OCC(=O)NC(=S)Nc2ccc3c4c(cccc24)CC3)cc1	0.43	0.4	-5	-7[20 µM]	-1	2	-3
Cc1cc(C)c(C(=O)N2CCCC(CNC(=O)C3(c4ccc(Cl)cc4)CC3)C2)c(=O)[nH]1 (stereo not drawn)	0.31	0.2	-5	-19	-1	2	-5

The results go on:
SMILES	Cl transport mod	PERK inh	KLK5 inh	Furin inhibitor	Wee1 degr inh	p97 ATPase inh	Thrombin inh
CCOC(=O)C1CCN(Cc2ccc(OC)c(C)c2OC)CC1	-0.15	0.6	4	-20	1	1	-2
Cc1cc2nc(C(C)(C)C)cc(N)n2n1	2.3	1.2	4	-22	3	5	-2
COC(=O)C1=NN(c2ccccc2OC)C2C(=O)N(c3ccccc3OC)C(=O)C12 (stereo not drawn)	0.0094	-0.4	-21	-6	7	3	-3
CN(C(=O)CCc1ccccc1)c1nnc(-c2ccncc2)s1	nt	-0.2	7	-16	-4	-5	0
Cc1cccc(N(CC(=O)N2CCCC2)S(=O)(=O)c2ccccc2)c1	-0.28	-0.8	-1	-18	2	6	-3
CCN(CC)S(=O)(=O)c1cccc(NC(=O)COC(=O)c2cccs2)c1	-0.013	1.0	-7	-17	3	0	2
COc1ccc(C(=O)NNC(=S)NC(=O)c2ccc(Br)o2)cc1OC	6.3*	0.6	-11	-18	-1	-2	-1
O=C(Nc1ccccc1)c1cccnc1N1CCCC1	nt	0.8	0	-16[20 µM]	1	4	-4
Cc1sc2ncn(CC(=O)NCCCC(=O)N3CCN(c4ncccn4)CC3)c(=O)c2c1C	0.46	2.5	-5	-9	-1	9	3
O=[N+]([O-])c1ccccc1S(=O)(=O)Oc1ccc(/C=N/n2cnnc2)cc1	0.42	0.3	-22	-11	-4	4	-5
CC1=C(C(=O)Nc2cc(C)ccn2)C(c2ccc(C)cc2)C2=C(CCCC2=O)N1 (stereo not drawn)	-0.59	0.3	1	-5[20 µM]	1	3	-3
CCCCn1c(SCC(=O)NCc2ccco2)nnc1-c1ccco1	0.28	0.2	3	-39	2	4	-23
CCOC(=O)c1c(-c2ccccc2)nnn1-c1nc(OC)nc(N2CCOCC2)n1	-1.5	-0.2	-1	-31[20 µM]	-2	-4	-1
CC(=O)c1ccc(NC(=O)c2cnn3ccccc23)cc1	nt	0.3	3	-6	-2	2	0
CC(C)N(C(=O)c1ccc2nc(-c3ccccc3)c(-c3ccccc3)nc2c1)C(C)C	0.42	-1.4	-3	-21	-1	-5	4
Nc1nc(-c2cccnc2)nn1C(=O)COc1ccccc1	-0.48	0.2	-9	-15[20 µM]	2	-1	5
O=C(c1ccccc1C(F)(F)F)N1CCN(S(=O)(=O)c2ccccc2)CC1	0.45	0.3	-21	-15	-1	5	-3
CCOc1ccccc1C(=O)NCC(=O)OCC(=O)NCCc1ccc(S(N)(=O)=O)cc1	2.2	-0.3	-19	1	-1	-8	3
CNC(=O)c1[nH]cnc1C(=O)Nc1ccc(Cl)cc1	3	-0.3	-5	-15	-1	7	-5
C/C(Cc1ccccc1)=N\NC(=O)CNC(=O)COc1ccccc1	-0.17	-0.2	-2	-18	3	2	-1
CC(=O)Oc1oc(-c2ccccc2)nc1/C=N/c1ccccn1	0.26	0.7	-17	8	1	8	3
COc1ccc(C2=NOC(C(=O)NCc3ccco3)C2)cc1OC (stereo not drawn)	0.076	-0.3	-4	-23	1	-3	-3
O=C(Oc1ccccc1C(=O)Oc1ccccc1)c1ccco1	0.53	1.4	-19	-21	-4	4	2
S=c1[nH]nc(COc2ccccc2)n1/N=C/c1ccccn1	-1.3	1.1	-4	-3	9	9	2
O=C(CC1C(=O)NCCN1Cc1c(F)cccc1Cl)NCCC1=CCCCC1 (stereo not drawn)	0.57	0.5	4	-22	0	-4	-6
Cc1cccc(-n2c(SCC(=O)NCc3ccco3)nnc2-c2ccco2)c1	-0.75	-1.4	-1	-28	-3	2	-2
COC(=O)C1=C(N)Oc2cc(C)n(CCN3CCOCC3)c(=O)c2C1c1cccnc1 (stereo not drawn)	0.58	1.7	-10	-19	0	5	-4

Screening results: PubChem BioAssay, several laboratories
